High-throughput results: PubChem, Broad Institute
Vaccinia stage: blocks a specific stage of Vaccinia orthopoxvirus infection. Vaccinia-infected cells, mCherry/Venus stage reporter fluorescence; stronger effect = lower value; some inactives read as strong as hits. activity change (mCherry), % (concentration not given with the values). 89,000 tested, 0.01% active;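 active = mCherry past -33% and 40 or more points under the early reporter, replicates agreeing; inconclusive = past -33% without that gap or agreement; tested in A549 cells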;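 also: scaled between vehicle wells and reference inhibitor wells; 23 nL library stock went into each well; one replicate is shown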
Vaccinia stage Venus: also measured in Vaccinia stage; calls as there; activity change (Venus), %; measured here: Venus reporter, other viral stage;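 negative = less Venus signal; first of two replicates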
* hit, by the source's call; u = inconclusive; x = no result given; & = joins results of further samples.

SMILES	Vaccinia stage	Vaccinia stage Venus
COCC(=O)N(C)C[C@H]1Oc2cc(-c3ccncc3)ccc2S(=O)(=O)N([C@H](C)CO)C[C@H]1C	17	8
C[C@@H]1CN([C@H](C)CO)C(=O)Cc2cc(NS(C)(=O)=O)ccc2O[C@@H]1CN(C)Cc1ccc(-c2ccccc2)cc1	u	x
Cc1ccccc1-c1cnc2c(c1)C(=O)N([C@@H](C)CO)C[C@@H](C)[C@@H](CN(C)Cc1cccnc1)O2	2	7
C[C@@H]1CCCCO[C@H](CN(C)C(=O)Nc2cccc3ccccc23)[C@H](C)CN([C@@H](C)CO)C(=O)c2cc(NC(=O)NC3CCCCC3)ccc2O1	15	17
O=C(Cc1ccncc1)NCC[C@@H]1CC[C@H](NC(=O)Nc2ccc(F)cc2)[C@H](CO)O1	1	4
N#C[C@H]1[C@H](c2ccccc2-c2cccc(F)c2)[C@@H](CO)N1C(=O)Cc1cccnc1	-5	4
C[C@H]1CN([C@@H](C)CO)C(=O)c2ccccc2-c2ccccc2CO[C@@H]1CN(C)C(=O)Nc1ccccc1C(F)(F)F	20	3
Cc1ccccc1S(=O)(=O)N(C)C[C@@H]1OCc2ccccc2-c2ccccc2C(=O)N([C@@H](C)CO)C[C@@H]1C	-25	-26
CCC(=O)N[C@H]1C=C[C@@H](CC(=O)OC)O[C@@H]1CO	3	4
C[C@@H]1CN([C@H](C)CO)C(=O)c2cc(NS(=O)(=O)c3ccccc3)ccc2O[C@@H]1CN(C)Cc1ccc(C(=O)O)cc1	27	12
NCC[C@H]1CC[C@H](NC(=O)NC2CCCCC2)[C@@H](CO)O1	4	4
COc1cccc(-c2ccc3c(c2)[C@H]2[C@H](CCN2C(=O)c2cccc(F)c2)[C@@H](CO)N3)c1	-34	-25
COc1ccccc1NC(=O)N[C@H]1CC[C@H](CC(=O)N[C@@H](C)c2ccccc2)O[C@@H]1CO	-26	-12
O=C(C[C@@H]1CC[C@H]2[C@@H](COC[C@@H](O)CN2C(=O)Nc2ccc(Cl)cc2)O1)NCc1ccncn1	7	8
CC(=O)n1cc([C@@H]2C=C(C(=O)Nc3ccccc3)O[C@H](OCCCCO)C2)c2ccccc21	18	18
C[C@H](NC(=O)C[C@@H]1CC[C@H]2[C@@H](COC[C@H](O)CN2Cc2cc(F)ccc2F)O1)c1ccccc1	16	10
CC(C)NC(=O)N1CC[C@H]2[C@@H]1c1cc(Br)ccc1N(C)[C@H]2CO	4	3
C[C@H](CO)N1C[C@H](C)[C@@H](CN(C)S(=O)(=O)c2ccc(Cl)cc2)Oc2ccc(NC(=O)Nc3ccc4c(c3)OCO4)cc2C1=O	5	2
Cc1ccccc1S(=O)(=O)N[C@@H]1CC[C@H](CCNS(=O)(=O)c2cccc(F)c2)O[C@@H]1CO	-10	-2
CCCN1C[C@H](C)[C@@H](OC)CN(C)C(=O)c2ccc(NC(=O)C3CCOCC3)cc2OC[C@@H]1C	13	5
O=C(C[C@H]1CC[C@@H](NC(=O)Nc2ccc(F)cc2)[C@@H](CO)O1)NCCN1CCCC1	21	20
CO[C@@H]1CC[C@H]2CCOc3c(C#N)cccc3C(=O)N(C)C[C@@H](c3ccccc3)CC(=O)N(C)C[C@@H]1O2	11	5
CCCN(C)C[C@@H]1OCCCC[C@@H](C)Oc2ccc(NC(=O)Nc3ccc4c(c3)OCO4)cc2C(=O)N([C@H](C)CO)C[C@H]1C	-17	-9
C[C@@H]1CN([C@@H](C)CO)C(=O)c2cc(NC(=O)Cc3ccccc3)ccc2O[C@@H](C)CCCCO[C@H]1CN(C)Cc1ccccc1	u	x
CC(C)NC(=O)N(C)C[C@@H]1Oc2ncc(C#Cc3ccncc3)cc2C(=O)N([C@H](C)CO)C[C@H]1C	11	8
Continuation.
SMILES	Vaccinia stage	Vaccinia stage Venus
CCC(=O)N1CCCCN2[C@H](CO)[C@@H](c3ccc(C#CCOC)cc3)[C@@H]2C1	33	13
CN1C(=O)c2cc(NC(=O)c3ccccc3)ccc2OC[C@H]2O[C@@H](CC(=O)O)CC[C@@H]21	10	4
O=C(c1ccccc1F)N1CC(=O)N2[C@H](CO)[C@@H](c3ccc(C#Cc4ccccc4)cc3)[C@@H]2C1	u	x
COc1ccc(NC(=O)N(C)C[C@H]2Oc3ccc(NC(=O)Cc4ccccc4)cc3C(=O)N([C@H](C)CO)C[C@@H]2C)cc1	11	9
C[C@@H]1CN([C@H](C)CO)C(=O)c2cc(C#CC3(O)CCCC3)cnc2O[C@@H]1CN(C)C(=O)Cc1ccncc1	11	5
CN1C(=O)c2cc(NC(=O)Cc3cccs3)ccc2OC[C@@H]2O[C@H](CC(=O)NCc3ccc(-c4ccccc4)cc3)CC[C@@H]21	-31	1
C[C@H](CO)N1C[C@H](C)[C@@H](CN(C)C(=O)NC2CCCCC2)Oc2ncc(Br)cc2C1=O	11	3
CCNC(=O)C[C@H]1CC[C@H](NC(=O)C2CCC2)[C@H](CO)O1	-1	-5
CCNC(=O)[C@@H]1[C@@H](CO)[C@@H]2Cn3c(ccc(-c4ccccc4)c3=O)[C@@H]2N1C(=O)C1CC1	16	15
Cc1noc(C)c1S(=O)(=O)Nc1ccc2c(c1)CC(=O)N([C@H](C)CO)C[C@@H](C)[C@H](CN(C)Cc1ccc3c(c1)OCO3)O2	2	3
COc1ccc(NC(=O)Nc2ccc3c(c2)C(=O)N([C@@H](C)CO)C[C@@H](C)[C@H](CN(C)C(=O)c2ccccc2)OCCCC[C@@H](C)O3)cc1	8	2
C[C@@H]1CCCCO[C@H](CN(C)S(=O)(=O)c2ccc(Cl)cc2)[C@@H](C)CN([C@@H](C)CO)C(=O)c2cc(NC(=O)Nc3ccccc3)ccc2O1	4	24
C[C@H](CO)N1C[C@H](C)[C@@H](CN(C)C(=O)CCCN(C)C)OCCCC[C@H](C)Oc2ccc(NS(=O)(=O)c3ccccc3)cc2C1=O	50	21
CCCC#Cc1ccc([C@H]2[C@@H](CO)N(C(C)=O)[C@H]2CNC(=O)C2CC2)cc1	-5	3
CN(C)C(=O)c1cccc(-c2ccc3c(c2)[C@@H]2[C@@H](CCN2C(=O)Cc2ccccc2)[C@H](CO)N3)c1	-7	2
C[C@H]1CN([C@@H](C)CO)C(=O)c2cc(NC(=O)Nc3cccc4ccccc34)ccc2O[C@@H]1CN(C)C(=O)NC1CCCCC1	18	10
CO[C@@H]1CN(C)C(=O)c2cc(NS(C)(=O)=O)ccc2OC[C@@H](C)N(C(=O)C2CCCCC2)C[C@@H]1C	11	14
Cc1noc(C)c1S(=O)(=O)Nc1ccc2c(c1)C(=O)N([C@@H](C)CO)C[C@H](C)[C@@H](CN(C)C)O2	12	12
C[C@@H]1CN([C@H](C)CO)C(=O)c2cc(C3=CCCCC3)cnc2O[C@@H]1CN(C)C(=O)Nc1ccccc1	-17	-7
C[C@@H]1CCCCO[C@@H](CN(C)S(=O)(=O)c2cn(C)cn2)[C@H](C)CN([C@H](C)CO)C(=O)c2cc(NC(=O)Nc3cccc4ccccc34)ccc2O1	25	5
COc1ccc(NC(=O)N(C)C[C@@H]2Oc3ccc(NC(=O)Nc4ccc5c(c4)OCO5)cc3C(=O)N([C@@H](C)CO)C[C@H]2C)cc1	-2	0
CCCNC(=O)N(C)C[C@@H]1Oc2ncc(-c3cccc(C#N)c3)cc2C(=O)N([C@H](C)CO)C[C@H]1C	20	4
C[C@@H]1CN([C@H](C)CO)S(=O)(=O)c2ccc(C#Cc3cccc(F)c3)cc2O[C@@H]1CN(C)CC1CC1	u	x
COCCNC(=O)C[C@@H]1CC[C@@H]2[C@H](COC[C@@H](O)CN2S(=O)(=O)c2ccccc2C)O1	-11	-5
CCS(=O)(=O)NCC[C@@H]1CC[C@@H](NC(=O)C2CCCC2)[C@@H](CO)O1	3	23

Part of the list above, with bars between the fields:
compound | Vaccinia stage | Vaccinia stage Venus
COCC(=O)N(C)C[C@H]1Oc2cc(-c3ccncc3)ccc2S(=O)(=O)N([C@H](C)CO)C[C@H]1C | 17 | 8
C[C@@H]1CN([C@H](C)CO)C(=O)Cc2cc(NS(C)(=O)=O)ccc2O[C@@H]1CN(C)Cc1ccc(-c2ccccc2)cc1 | u | x
Cc1ccccc1-c1cnc2c(c1)C(=O)N([C@@H](C)CO)C[C@@H](C)[C@@H](CN(C)Cc1cccnc1)O2 | 2 | 7
C[C@@H]1CCCCO[C@H](CN(C)C(=O)Nc2cccc3ccccc23)[C@H](C)CN([C@@H](C)CO)C(=O)c2cc(NC(=O)NC3CCCCC3)ccc2O1 | 15 | 17
O=C(Cc1ccncc1)NCC[C@@H]1CC[C@H](NC(=O)Nc2ccc(F)cc2)[C@H](CO)O1 | 1 | 4
N#C[C@H]1[C@H](c2ccccc2-c2cccc(F)c2)[C@@H](CO)N1C(=O)Cc1cccnc1 | -5 | 4
C[C@H]1CN([C@@H](C)CO)C(=O)c2ccccc2-c2ccccc2CO[C@@H]1CN(C)C(=O)Nc1ccccc1C(F)(F)F | 20 | 3
Cc1ccccc1S(=O)(=O)N(C)C[C@@H]1OCc2ccccc2-c2ccccc2C(=O)N([C@@H](C)CO)C[C@@H]1C | -25 | -26
CCC(=O)N[C@H]1C=C[C@@H](CC(=O)OC)O[C@@H]1CO | 3 | 4
C[C@@H]1CN([C@H](C)CO)C(=O)c2cc(NS(=O)(=O)c3ccccc3)ccc2O[C@@H]1CN(C)Cc1ccc(C(=O)O)cc1 | 27 | 12
NCC[C@H]1CC[C@H](NC(=O)NC2CCCCC2)[C@@H](CO)O1 | 4 | 4

(next part)
SMILES	Vaccinia stage	Vaccinia stage Venus
COc1cccc(C(=O)Nc2ccc3c(c2)C(=O)N(C)C[C@H](OC)[C@H](C)CN(C(=O)C2CCCC2)[C@@H](C)CO3)c1	-17	-10
C[C@H](CO)N1C[C@H](C)[C@H](CN(C)C(=O)Nc2ccccc2)Oc2ccc(NS(=O)(=O)c3ccc(F)cc3)cc2CC1=O	7	3
COc1ccc(S(=O)(=O)Nc2ccc3c(c2)C(=O)N([C@H](C)CO)C[C@H](C)[C@H](CN(C)Cc2ccc(C(=O)O)cc2)OCCCC[C@@H](C)O3)cc1	29	7
CC=Cc1ccc2n(c1=O)C[C@H]1[C@H](CO)[C@@H](C(=O)Nc3ccc(-c4ccccc4)cc3)[C@@H]2N1C (mixture of isomers)	-10	-10
C[C@@H]1CN([C@H](C)CO)C(=O)c2cc(NS(=O)(=O)c3ccc(Cl)cc3)ccc2O[C@@H](C)CCCCO[C@@H]1CN(C)Cc1ccc(C(=O)O)cc1	18	7
COCC(=O)N1CC(=O)N2[C@@H](CO)[C@@H](c3ccc(-c4cccnc4)cc3)[C@@H]2C1	25	7
O=C(Nc1cccc(Cl)c1)N[C@H]1CC[C@@H](CCNC(=O)C2CC2)O[C@@H]1CO	21	14
CCS(=O)(=O)N1CCC2(CC1)CN(S(=O)(=O)c1cccc(OC)c1)[C@@H](CO)c1[nH]c3cc(OC)ccc3c12	-16	-16
CC(=O)N(C)C[C@@H]1Oc2ncc(-c3cccnc3)cc2C(=O)N([C@H](C)CO)C[C@H]1C	14	3
C[C@@H]1CCCCO[C@H](CN(C)C(=O)Cc2ccccc2)[C@@H](C)CN([C@@H](C)CO)C(=O)c2cc(NS(=O)(=O)c3ccc(Cl)cc3)ccc2O1	u	x
C[C@H](CO)N1C[C@H](C)[C@H](CN(C)C(=O)Nc2ccc(F)cc2)Oc2ccc(NC(=O)NC3CCCCC3)cc2C1=O	-1	3
C[C@@H]1CN([C@H](C)CO)C(=O)c2cc(NC(=O)Nc3ccccc3)ccc2O[C@H]1CN(C)S(=O)(=O)c1ccccc1	-10	-9
O=C(C[C@@H]1C[C@H]2c3cc(NC(=O)NC4CCCC4)ccc3O[C@H]2[C@H](CO)O1)NCc1ccc(Oc2ccccc2)cc1	-16	-10
C[C@@H]1CCCCO[C@@H](CN(C)C(=O)Nc2ccc(F)cc2)[C@@H](C)CN([C@H](C)CO)C(=O)c2cc(NC(=O)CCCN(C)C)ccc2O1	9	6
C[C@H](CO)N1C[C@H](C)[C@H](CN(C)S(C)(=O)=O)Oc2cc(-c3ccncc3)ccc2S1(=O)=O	16	9
COc1cccc(S(=O)(=O)Nc2ccc3c(c2)[C@@H]2C[C@@H](CC(=O)NCc4cccc(F)c4)O[C@H](CO)[C@@H]2O3)c1	5	5
CCCNC(=O)N1[C@@H]2CNC[C@H]1C2c1ccc(-c2cccnc2)cc1 (stereo not given in full)	5&16	5&9
COc1cccc(NC(=O)N2[C@H](CO)[C@H](c3ccccc3)[C@@H]2CNC(C)C)c1	4	4
CN(C)C(=O)c1ccc(-c2ccc3c(c2)[C@@H]2[C@@H](CCN2C(=O)Cc2ccccn2)[C@@H](CO)N3C)cc1	6	4
C[C@@H]1CN([C@H](C)CO)C(=O)c2cc(/C=C/c3ccccc3)cnc2O[C@@H]1CN(C)C(=O)Nc1ccc(C(F)(F)F)cc1	u	x
CCCN1C[C@@H](C)[C@H](OC)CN(C)C(=O)c2cc(NC(=O)c3ccc(F)cc3)ccc2OC[C@H]1C	-11	-3
COc1ccc(NC(=O)Nc2ccc3c(c2)CC(=O)N([C@@H](C)CO)C[C@H](C)[C@H](CN(C)C)O3)cc1	10	2
C[C@H](CO)N1C[C@H](C)[C@@H](CN(C)C(=O)c2ccccn2)Oc2ncc(-c3ccc(F)cc3)cc2C1=O	11	6
C[C@H]1CN([C@@H](C)CO)C(=O)c2cccc(NC(=O)C3CCCCC3)c2O[C@@H]1CN(C)Cc1ccncc1	1	10
COc1ccc(NC(=O)Nc2cccc3c2O[C@@H](CN(C)C(=O)Nc2c(C)noc2C)[C@@H](C)CN([C@H](C)CO)C3=O)cc1	-7	-12
CCCNC(=O)C[C@@H]1CC[C@H]2[C@@H](COc3ccc(NS(=O)(=O)CC)cc3C(=O)N2C)O1	8	5
COc1ccccc1NC(=O)N[C@@H]1CC[C@@H](CC(=O)N[C@@H](C)c2ccccc2)O[C@H]1CO	-9	-4
O=C(N[C@@H]1CC[C@@H](CCn2cc(-c3cccnc3)nn2)O[C@H]1CO)c1ccccc1F	-9	-3
CNC(=O)C[C@H]1CC[C@H]2[C@@H](COc3ccc(NC(=O)c4ccc(C#N)cc4)cc3C(=O)N2C)O1	10	9

Some of the compounds tested, so the mix of outcomes need not match the whole.
